Compound activity deposited in PubChem by ICCB-Longwood Screening Facility, Harvard Medical School.
CapD inh: Bacillus anthracis CapD inhibitors, primary screen, biochemical, fluorescence intensity | purified CapD enzyme, fluorescence intensity read-out; stronger effect = lower value; some hits fall short of the stated cut | z-score (test concentration not listed) | 140,000 compounds, 0.23% hits;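 active = z-score under -4 in either of two replicates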;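 note: stock transfer was 100 nL into about 40 µL; score is relative to mean and spread of the plate; one replicate is shown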
AID504770: growth inhibition of E. coli YBA685, primary screen, V. cholerae RctB inhibitors; E. coli YBA685 rctB-dependent plasmid, OD600 growth, 3 h; stronger effect = lower value; 130,000 compounds, 0.27% hits; z-score (test concentration not listed);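 active = z-score under -2 on both plates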;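 note: wells of about 30 µL received 100 nL stock; score is relative to mean and SD of the test wells; the first replicate is given; strong numbers were not always called active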
* hit, by the source's call; i = inactive; / = not tested or not shown.

SMILES	CapD inh	AID504770
Cc1ccc(C(C(=O)NCc2ccccc2)N(C(=O)C2COc3ccccc3O2)c2cccc(O)c2)o1 (configuration not stated)	/	0.25
NS(=O)(=O)c1ccc(CCNC(=O)CCC2COc3ccccc3O2)cc1 (configuration not stated)	-0.5	-0.55
O=[N+]([O-])c1ccc(N=Nc2c(O)n(-c3ccccc3)c3ccccc23)cc1	-0.285	/
CC1CC(C)CN(C(=O)c2cc3c(-c4ccc(Cl)cc4)nn(C)c3s2)C1 (configuration not stated)	-0.6	0.7
Cc1cc2cc(CNC(=O)NC3CCCCC3)ccc2n1C	/	-1.35
CCOc1ccc(/C=C2/SC(=O)N(CNc3ccc(OC)c(Cl)c3)C2=O)cc1	-1.4	/
O=C(NC1CCN(Cc2nnnn2Cc2ccc3c(c2)OCO3)CC1)c1ccccc1F	/	2.1
COc1ccc(NS(=O)(=O)N2CCCCC2)cc1	0.105	-0.4
CC1(C)c2sc(=O)[nH]c2SC2C(=O)N(c3ccc(Br)cc3)C(=O)C21 (configuration not stated)	/	0.1
COc1ccc(C2Nc3cccc4cccc(c34)N2)cc1OC	6.4	/
Cn1nc(C(F)(F)F)cc1OC(=O)c1ccccc1Cl	-0.025	-0.25
C#CC(=O)OCC(=O)Nc1ccc(C)c(C)c1	/	0.4
O=c1[nH]c2ccc(Br)cc2c(-c2ccccc2)c1N1CCCCC1	-0.02	-0.85
CCOC(=O)N1CCN(S(=O)(=O)c2ccc(C(=O)Nc3nc4ccc(Br)cc4s3)cc2)CC1	-0.57	/
CCN(CCOC(=O)NC1CCN(Cc2ccccc2)C1)c1ccc(N=Nc2ccc([N+](=O)[O-])cc2)cc1 (configuration not stated)	0.215	/
COc1nc(-c2ccc(Cl)cc2)ccc1-c1noc(COc2ccccc2)n1	3	-0.9
Cc1ccccc1-n1c(SCC(=O)Nc2ccc(F)c(Cl)c2)nnc1-c1cc2occc2n1C	-0.305	0
CCOc1ccccc1N1C(=O)C2C(c3ccc(F)cc3)OC3(C(=O)c4ccccc4C3=O)C2C1=O (configuration not stated)	-0.145	/
Cc1noc(C)c1CSc1ncnc2sccc12	/	0.2
O=C(CN1CCN(c2ccccc2)CC1)Nc1nnc(C2CCCCC2)s1	-0.5	0.2
COc1ccc(NC(=O)C2(N(C(=O)Cn3nnnc3N)c3ccc(OC)cc3)CCCCC2)cc1	-0.2	1.35
CCCCNC(=O)C1CCCN(S(=O)(=O)CC)C1 (configuration not stated)	-0.09	-0.55
Cn1nccc1-c1cc(Cl)cc(Cl)c1O	-0.31	-0.6
Cc1cc(C(F)(F)F)c(C#N)c(SCC(=O)c2ccc([N+](=O)[O-])cc2)n1	0.36	/
CC1=C(C(=O)OCCc2ccccc2)C(c2ccc(Cl)c(Cl)c2)CC(=O)N1 (configuration not stated)	-0.365	/

Quoted at random: two records from the list
SMILES	CapD inh	AID504770
CCOc1ccc(/C=C2/SC(=O)N(CNc3ccc(OC)c(Cl)c3)C2=O)cc1	-1.4	/
C#CC(=O)OCC(=O)Nc1ccc(C)c(C)c1	/	0.4

Sorted by number of heavy atoms (low to high): some entries from above.
SMILES	CapD inh	AID504770
Cn1nccc1-c1cc(Cl)cc(Cl)c1O	-0.31	-0.6
Cc1noc(C)c1CSc1ncnc2sccc12	/	0.2
CCOc1ccccc1N1C(=O)C2C(c3ccc(F)cc3)OC3(C(=O)c4ccccc4C3=O)C2C1=O (configuration not stated)	-0.145	/

Following part.
SMILES	CapD inh	AID504770
CN1C2C[C@H](OC(=O)[C@H](CO)c3ccccc3)C[C@H]1[C@@H](O)C2	/	0.25
CCn1c2ccccc2c2cc(CN3CCC(NC(=O)CNC(=O)c4ccccc4)C3)ccc21 (configuration not stated)	4.46	/
C=CCN(CC=C)Cc1c(O)ccc2c(=O)c(-c3ccccc3)coc12	-0.1	0.1
CCOc1ccc(NC(=O)C2C3C=CC(O3)C2C(=O)O)cc1 (configuration not stated)	0.385	0.9
Cc1ccccc1OCC1=NN2C(=N)/C(=C/c3ccc(N(C)C)cc3)C(=O)N=C2S1	8.4	-0.2
O=C(COc1ccccc1F)NCC(c1ccc(F)cc1)N1CCOCC1 (configuration not stated)	/	0.05
O=C(NC(Cc1ccccc1)C(=O)NC1CCCCC1)OCCc1ccc(Cl)cc1 (configuration not stated)	-0.225	/
COc1cc(C)c(CN2CCCCC2)cc1C	0.005	0.3
CCOc1cc(C2C(C#N)=C(N)Oc3n[nH]c(-c4ccc5c(c4)OCO5)c32)cc(Br)c1O (configuration not stated)	-1.01	/
Oc1ccc(CCc2n[nH]c(=S)n2-c2ccc(Cl)cc2)cc1	-0.325	/
COc1ccc(COC(=O)C2=C(C)NC3=C(C(=O)CC(c4cccs4)C3)C2c2ccccc2F)cc1 (configuration not stated)	9.06	/
COc1cc(Cl)cc(C(=O)O)c1O	0.025	-1
O=S(=O)(NCCc1cccc(F)c1)c1ccc(Br)cc1	0.12	/
COc1ccc(C2CC(=O)N(c3ccccc3)C3=C2C(=O)CCC3)c(OC)c1 (configuration not stated)	/	-0.05
COc1ccc(N=C2C(=O)N(Cc3ccc(Cl)cc3)c3ccccc32)cc1	0.22	/
O=C(NCc1ccco1)C(c1ccccc1)c1ccccc1	-0.42	-1.15
N#CC(=NCCC1=CCCCC1)C1=C(O)c2ccccc2C1=O	0.34	0
CCOC(=O)C1=C(N)n2c(s/c(=C/c3cccs3)c2=O)=C(C(=O)OCC)C1c1cccs1 (configuration not stated)	-0.075	/
Cc1ccc(N2C(=O)NC(=O)/C(=C\c3ccc(O)c(Br)c3)C2=O)cc1	-1.62	/
O=S(=O)(CCN1CCSCC1)c1ccccc1	0.885	0.35
Cc1ccc2nc(C(F)(F)F)cc(OC(C)C)c2c1	-0.595	0
COc1cc(OC)cc(C(=O)N2CCc3ccccc32)c1	-0.275	-0.75
CCCNC(=O)c1ccc(S(=O)(=O)N(C)c2ccccc2)cc1	1.09	-0.3
O=C(N/N=C/c1cccs1)c1cccnc1	0.15	/
COc1ccc(NC(=O)C2Cc3ccccc3CN2C(=O)c2ccccc2)cc1 (configuration not stated)	-0.765	0.45

Grouped by structure, the compounds so far containing a COOH group.
SMILES	CapD inh	AID504770
CCOc1ccc(NC(=O)C2C3C=CC(O3)C2C(=O)O)cc1 (configuration not stated)	0.385	0.9
COc1cc(Cl)cc(C(=O)O)c1O	0.025	-1

(further entries)
SMILES	CapD inh	AID504770
Cc1cc(N2C(=O)Nc3ccccc3N2O)no1	4.44	-0.5
CC(=O)Nc1ccc(C)c([N+](=O)[O-])c1	-0.185	/
COc1cccc(CCOC(=O)N2CCN(c3ccccc3Cl)CC2)c1	-0.91	/
CCN(CC)c1ccc(C=C2C(=O)c3ccccc3C2=O)c(OC)c1	7.98	-0.6
COc1ccc(C2SCc3cc(C)c(C)cc3CS2)cc1OC	-0.55	/
CCOC(=O)C1CCN(C(=O)c2sc(-c3ccc4c(c3)CCO4)nc2C)CC1	107	-0.5
Clc1ccc(SCc2cn3ccsc3n2)cc1	/	-0.7
Cc1cc(NC(=O)COC(=O)C2CCCCC2)no1	/	-0.05
COc1cc(-c2nnc(COC(=O)[C@H](C(C)C)N3C(=O)c4ccccc4C3=O)o2)cc(OC)c1OC	/	-0.05
CC1(C(=O)O)NCCc2c1[nH]c1ccccc21 (configuration not stated)	-0.305	1.2
Cc1cccc(C(=O)OCCN2C(=O)c3cccc4c(N5CCOCC5)ccc(c34)C2=O)c1	0.45	/
COc1ccc(S(N)(=O)=O)cc1-c1nnc2c3ccccc3c(C)nn12	0.81	0.55
O=C(NCc1cccnc1)c1nc(-c2ccccc2)oc1C(F)(F)F	0.09	/
COc1cc(N=Nc2c(Cl)cc([N+](=O)[O-])cc2[N+](=O)[O-])c(NC(C)=O)cc1N(CCO)CCC#N	-1.18	/
CCN(CC)C(=O)CP(=O)(c1ccccc1)c1ccccc1	0.08	-0.35
Clc1ccc(Sc2cc(N3CCOCC3)nc(-c3ccccc3)n2)cc1	0.61	/
O=C(CSc1nnc2ccccn12)NC(=O)Cc1ccccc1	/	-0.8
COc1ccc(Cl)cc1NC(=O)/C=C/c1cccs1	-0.23	0.05
Cc1ccc(Nc2nc(C3(C)CC(C(C)C)C(=O)O3)cs2)cc1 (configuration not stated)	-1.02	-0.05
N#CCC(=O)Nc1cccc2ncccc12	/	-0.6
CC(CCc1ccccc1)NC(=O)CSc1ccccn1 (configuration not stated)	0.375	0.1
CCOC(CNC(=O)c1sccc1Oc1ccc([N+](=O)[O-])cc1F)OCC	-0.895	/
CCOC(=O)c1sc(NC(=O)Cn2c3ccccc3c(=O)c3ccccc32)nc1C	23.6	/
CN(C(=O)CSc1nc(N)c(NC(=O)c2ccccc2)c(=O)[nH]1)c1ccccc1	/	-1.15
CN(C(=O)c1cc2sccc2n1C)C1CCCCC1	/	-0.05
SMILES	CapD inh	AID504770
O=C(NCCc1ccccc1)C1CCCN1C(=O)Nc1ccccc1 (configuration not stated)	0.37	-0.45
c1ccc(CNc2nc(NCc3ccco3)nc(N3CCOCC3)n2)cc1	-0.735	/
C=CCn1c(-c2ccccc2Cl)nc2ccccc21	-0.58	-2
CC(=O)Oc1ccccc1C(=O)N(c1ccccc1)C(C)C1CC1 (configuration not stated)	0.115	-0.85
OCc1nc(-c2ccc(Cl)cc2)n2ccccc12	/	-0.85
Cc1nn(-c2ccccc2)c2sc(C(=O)n3cccn3)cc12	7.21	-0.05
O=C(Nc1ccc2oc(=O)ccc2c1)C1CCN(c2ccc(C(F)(F)F)cn2)CC1	0.265	/
Cn1c(=O)[nH]c(=O)c2c1[nH]c(=S)n2CC(O)COc1ccc2ccccc2c1 (configuration not stated)	-0.385	-0.85
Cc1ccc(C)c(CNC(=O)c2nc3c(nnn3CC3CCCO3)c(=O)[nH]2)c1 (configuration not stated)	0.65	0.15
Cc1[nH]c2ccccc2c1C(Nc1ccccn1)c1ccc(C(F)(F)F)cc1 (configuration not stated)	-0.125	0.95
Cc1ccc(N2C(=O)CC(N3CCN(c4nc(C)cc(C)n4)CC3)C2=O)cc1 (configuration not stated)	-0.09	-0.7
COc1ccc(OC)c(S(=O)(=O)Oc2ccc(C#N)cc2)c1	0.42	/
NCCc1ccc(S(N)(=O)=O)cc1	-0.08	-0.55
O=C(N=Nc1[nH]c2ccccc2c1O)c1ccc(Cl)cc1	/	-0.45
OC(COc1ccc2c(c1)OCO2)CN1CCCCCC1 (configuration not stated)	-0.39	-0.1
Cc1ccccc1-c1nc2sc3c(c2c(=O)o1)CCC3	0.775	/
CCSC(=O)NC1CCCCC1	0.405	-0.5
O=C(COC(=O)Cc1cccc(C(F)(F)F)c1)NCC1CCCO1 (configuration not stated)	0.315	0.35
CC1CCN(S(=O)(=O)c2cc(Cl)c(Oc3ccc([N+](=O)[O-])cc3Cl)c(Cl)c2)CC1	-0.065	/
O=C(Nc1cccc(C(=O)N2CCOCC2)c1)c1cncc(Br)c1	0.235	0.25
O=C(CSc1nc2ccccc2c(=O)n1Cc1ccco1)OC1CCCCC1	/	-0.2
CC(=O)Nc1ccc(C(=O)OCC(=O)Nc2ccc(F)c(F)c2)cc1	-0.505	1
COc1ccc(CCN(C)C(=O)C2CCCN(Cc3ccc(OC)c(OC)c3)C2)cc1OC (configuration not stated)	2.41	-0.05
COc1cc(SC#N)ccc1N=Cc1c(O)n(-c2cccc(C)c2)c(=O)[nH]c1=O	/	0.4
Clc1ccc2nc(N3CCCCC3)[nH]c2c1	-0.38	-0.45

For reference, some entries already given:
SMILES	CapD inh	AID504770
Cc1ccc(C(C(=O)NCc2ccccc2)N(C(=O)C2COc3ccccc3O2)c2cccc(O)c2)o1 (configuration not stated)	/	0.25
NS(=O)(=O)c1ccc(CCNC(=O)CCC2COc3ccccc3O2)cc1 (configuration not stated)	-0.5	-0.55

Next results follow:
SMILES	CapD inh	AID504770
CCc1ccc(NC(c2cc(Cl)cc(Cl)c2OC)P2(=O)OCC(C)(C)CO2)cc1 (configuration not stated)	-0.3	/
O=C(Nc1ccc(F)cc1)c1cc2cc(Cl)cc(Cl)c2oc1=O	-0.19	-0.2
CCCCN(Cc1ccccc1)S(=O)(=O)c1ccc2c(c1)oc(=O)n2CC(=O)OCC	1.45	0.9
CCOc1ccccc1C1CC(=O)C2=C(C1)Nc1ccccc1N(C(=O)CC)C2c1ccc(OC)cc1 (configuration not stated)	11.6	/
N#Cc1ccc2[nH]cc(CCN(Cc3ccccc3)Cc3ccccc3)c2c1	0.705	/
CN1C(=O)C(Cc2ccccc2)NC1=S (configuration not stated)	/	-1.1
CCCN1C(=O)/C(=N\OCc2nnc(-c3cccs3)o2)c2ccccc21	/	-0.25
N#Cc1nn(-c2cccc(C(F)(F)F)c2)c(=O)[nH]c1=O	-0.005	/
COC(=O)C1=C(NC(=O)c2ccccc2)CCS1	i	-0.9
CC1(CO)CSC(Nc2ccc(F)cc2F)=N1 (configuration not stated)	-0.175	-0.5
O=C(NCc1ccc(Cl)cc1)c1cc(F)c(F)c(F)c1F	0.565	-0.4
O=C(COC(=O)c1ccccc1C(=O)N1CCN(c2ccc(F)cc2)CC1)NC1CC1	/	-0.2
COc1cccc(-c2nc(-c3cccs3)c(-c3cccs3)[nH]2)c1	49.3	3.15
CC1(C)CC(=O)C2=C(C1)c1c(ccc3ccccc13)NC2c1ccc(-c2ccc(Cl)c(C(=O)O)c2)o1 (configuration not stated)	27	/
CCN=C1SC(CC(N)=O)C(=O)N1CC (configuration not stated)	/	-0.05
